Sa helicase inh – blocks Staphylococcus aureus DNA helicase; 0.05% of 120,000 active; purified S. aureus helicase, fluorescence unwinding assay; about half of the hits fall short of the stated cut; inhibition, %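 (tested at about 80 µM)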; AID 485395;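 active = both duplicates at 50% or more, or one of them with a favoured structure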;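 also: 0% = mean of negative control wells and 100% = mean of positive control wells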
MgrA-DNA mod – S. aureus MgrA-DNA binding modulation; fluorescence polarization; inhibition, %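 (about 10 µg/mL by stock and volumes)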; 0.13% of 84,000 active; AID 602314;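 active = above 50% in either of two replicates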;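 also: 0% = protein plus DNA without compound and 100% = DNA alone without protein; higher means less MgrA bound to DNA so lower polarization; one replicate is shown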
An asterisk follows results filed as active; / = no result given; & = joins results of further samples.

The first 7 compounds (preview)
SMILES | Sa helicase inh | MgrA-DNA mod
Cc1ccccc1Cn1c(=O)n(CC2CCC(C(=O)NCc3ccccc3)CC2)c(=O)c2ccccc21 (stereo unspecified) | 9 | -1.1
NNC(=O)CCN1CCCCC1 | -6 | /
CCOc1ccc(C2Nc3ccccc3C(C)(C)O2)cc1OC (stereo unspecified) | 1 | /
N#Cc1cn(-c2ccccc2Cl)c(=O)[nH]c1=O | / | 0.2
COCCn1c(N)c(-c2nc3ccccc3[nH]2)c(O)c1N=Nc1ccc(F)c(F)c1 | -18 | /
CN1C(=O)C(=Cc2cccn2C(C)(C)C)C(=O)N(C)C1=S | 8 | 9.2
COc1ccc(CN(C)Cc2nc3cc(Cl)ccc3c(=O)[nH]2)c(OC)c1 | 7 | /

Main list, from the start:
SMILES | Sa helicase inh | MgrA-DNA mod
Cc1ccccc1Cn1c(=O)n(CC2CCC(C(=O)NCc3ccccc3)CC2)c(=O)c2ccccc21 (stereo unspecified) | 9 | -1.1
NNC(=O)CCN1CCCCC1 | -6 | /
CCOc1ccc(C2Nc3ccccc3C(C)(C)O2)cc1OC (stereo unspecified) | 1 | /
N#Cc1cn(-c2ccccc2Cl)c(=O)[nH]c1=O | / | 0.2
COCCn1c(N)c(-c2nc3ccccc3[nH]2)c(O)c1N=Nc1ccc(F)c(F)c1 | -18 | /
CN1C(=O)C(=Cc2cccn2C(C)(C)C)C(=O)N(C)C1=S | 8 | 9.2
COc1ccc(CN(C)Cc2nc3cc(Cl)ccc3c(=O)[nH]2)c(OC)c1 | 7 | /
CCOC(=O)c1ccc(-c2coc3cc(OC(C)=O)c(CC)cc3c2=O)o1 | 7 | 2.4
O=P(O)(CN1CCCCC1)C1CCCCC1O (stereo unspecified) | -9 | 0.8
CC(Sc1nnc2c(Cl)cc(Cl)cn12)c1nnc(-c2cccs2)o1 (stereo unspecified) | 11 | /
CS(=O)(=O)Nc1ccc2c(c1)nc1n2CCN(Cc2ccccc2)C1 | 14 | -1.1
COc1ccccc1NC(=O)C1CC(=O)N(CCc2ccc(OC)c(OC)c2)C(=Nc2ccccc2)S1 (stereo unspecified) | / | -2.7
Cc1nc(-c2ccc3c(c2)CCO3)sc1C(=O)NC1CCS(=O)(=O)C1 (stereo unspecified) | / | -1.0
COc1ccc(CN(C)C(=O)CSc2nc(C)cs2)cc1OC | 6 | /
NC(=O)C1CCN(C(=O)CCC(=O)N2CCOc3ccc(Cl)cc32)CC1 | 28 | /
O=C(CN1CCC(n2nnc3ccccc32)CC1)Nc1ccccc1Cl | 6 | 16
Cc1ccc(C(=O)Nc2cc(C)cc(C)c2)cc1 | -44 | /
Cc1ccc(NC(=O)c2ccc(-n3nc(C(F)(F)F)c4c3-c3ccoc3CC4)cc2)cc1 | 13 | 2.0
COc1ccccc1N(C)C(=O)c1cc(S(=O)(=O)N2CCCC2)cn1C | -29 | /
CC1(C)OC(=O)C(=Cc2ccc(-c3ccc(S(N)(=O)=O)cc3)o2)C(=O)O1 | 1 | 22
O=[N+]([O-])c1ccc(C2Nc3ccccc3S2)cc1 (stereo unspecified) | / | 3.5
O=C(O)CON=C1c2ccccc2-c2ccccc21 | -11 | /
CC(C)c1ccc(NC(=O)COc2nncc3ccccc23)cc1 | 14 | -0.5
Cc1ccc(/C=C2\SC(=S)N(CC(=O)Nc3nnc(C)s3)C2=O)cc1 | / | 0.1
CCc1ccc(NS(=O)(=O)c2ccc3c(c2)SCC(=O)N3)cc1 | 1 | 0.2

Taken from above.
MgrA-DNA mod with `CC(C)c1ccc(NC(=O)COc2nncc3ccccc23)cc1` reads -0.5
MgrA-DNA mod with `O=P(O)(CN1CCCCC1)C1CCCCC1O` (stereo unspecified) reads 0.8

Further structures
SMILES | Sa helicase inh | MgrA-DNA mod
Cc1ccc2oc(C(=O)Nc3ccc(S(N)(=O)=O)cc3)cc(=O)c2c1 | 0 | /
CCN(CC(=O)Nc1ccccc1OC)C(C)C(=O)c1[nH]c(C)c(C(=O)OC)c1C (stereo unspecified) | -8 | /
O=C(O)c1cc2ccccc2cn1 | / | 0.7
O=S1(=O)C=C2C(C1)SC(=S)N2C1CCS(=O)(=O)C1 (stereo unspecified) | 0 | 0.7
CC1C(=O)OC2C1CCC1(C)CCC(=O)C(C)C21 (stereo unspecified) | 25 | /
O=C(c1ccccc1)C(Sc1ncn[nH]1)c1ccccc1 (stereo unspecified) | 9 | -7.6
O=C(CSc1nnc2n1CCCCC2)N(Cc1cccs1)c1ccc2c(c1)OCCO2 | 17 | /
FC(F)(F)c1nnc2n1N=C(c1cc3ccccc3o1)CS2 | 4 | /
CCOCCCn1c(SCC(=O)/C(C#N)=C(\C)N)nc2ccccc2c1=O | 4 | /
COc1ccccc1/C=C1\N=C(c2ccco2)OC1=O | -12 | /
Cc1cccc(-c2nnc3sc(NC(=O)COc4ccccc4F)nn23)c1 | -20 | /
Cc1nccc(-c2cccc(NS(=O)(=O)c3ccccc3C(F)(F)F)c2)n1 | / | -3.0
C=CCSc1nc2ccccc2c(=O)n1CC(=C)C | 5 | /
Nc1cccc2c1C(=O)N(C(=O)/C=C/c1cccc(F)c1)C2=O | -17 | /
NC(=O)CCOC1CCN(C(c2ccccc2)c2ccccc2)CC1 | / | -5.2
O=C(Oc1ccc(OC(=O)C2CCCCC2)c(Cl)c1)C1CCCCC1 | 9 | -1.4
O=C1Nc2cc(C(F)(F)F)ccc2N2CCCC12 (stereo unspecified) | / | 1.5
CCCn1c(N)c(C(=O)CN2CCCc3ccccc32)c(=O)[nH]c1=O | 15 | /
Cc1ccc(-c2csc(C3=C(O)CN(N)C3=N)n2)cc1 | 10 | /
Cc1noc(C)c1C(=O)N1CCCSc2ccccc21 | -8 | /
CCOC(=O)CC1=CC(C)(CC(=O)OCC)C(C#N)(C#N)C(N)=C1C#N (stereo unspecified) | 15 | /
O=C(c1ccc(C(=O)N2CCCCC2)cc1)N1CCCCC1 | -6 | 0.4
CC(C)OC(=O)c1cccc2c1C(=O)c1ccccc1-2 | / | -0.5
CCOC(=O)c1[nH]c(C)c(C(=O)N(CC)CC)c1C | -27 | /
CCCC(CCC)C(=O)N1CCN(c2ccc(NCc3ccccc3)nn2)CC1 | 15 | /

Among those listed so far, 2 contain a thiophene ring, fused or not:
SMILES | Sa helicase inh | MgrA-DNA mod
CC(Sc1nnc2c(Cl)cc(Cl)cn12)c1nnc(-c2cccs2)o1 (stereo unspecified) | 11 | /
O=C(CSc1nnc2n1CCCCC2)N(Cc1cccs1)c1ccc2c(c1)OCCO2 | 17 | /

Following part.
SMILES | Sa helicase inh | MgrA-DNA mod
Fc1ccc(Cc2nnc(Cc3ccccc3)o2)cc1 | 0 | /
N#Cc1c(F)cccc1NC(=O)c1ccc(Cl)cc1Cl | / | -0.7
COc1ccc(C(=O)NCc2cn3ccccc3n2)cc1 | -18 | /
CC1CCc2c(sc(NC(=O)CCN3C(=O)c4ccccc4C3=O)c2C(N)=O)C1 (stereo unspecified) | / | -2.2
CC(C)(C)c1nnc2n1N=C(c1ccc(Br)cc1)CS2 | -19 | /
O=C(Nc1ccc(N2CCCCC2)cc1)c1ccc(=O)oc1 | -46 | /
C=CCNC(=O)c1ccc(S(=O)(=O)N(CC)c2ccccc2)cc1 | 1 | /
CC(C)CNc1ncnc2c1cnn2-c1ccccc1 | 21 | -0.5
O=C1CSC(=Nc2ccccc2)N1S(=O)(=O)c1ccccc1 | 10 | 1.1
Cc1nc2c3ccccc3n3c(CCCC(=O)N4CCOCC4)nnc3n2n1 | -13 | /
CC(C)S(=O)(=O)/C(C#N)=C/Nc1cccnc1 | 6 | /
CSc1nc2ccc(NS(=O)(=O)c3ccc([N+](=O)[O-])cc3)cc2s1 | / | 1.4
Nc1c(C(=O)N2CCCC2)nnn1-c1ccc(F)cc1 | -4 | -1.5
O=C(Nc1ccc(F)c(Cl)c1)c1ccc(N2C(=O)CCC2=O)cc1 | -14 | /
CSc1cccc(C(=O)Nc2sccc2C#N)c1 | 7 | /
CCC(Sc1nnc(C)s1)C(=O)Nc1nccs1 (stereo unspecified) | -9 | 3.9
O=S(=O)(c1ccc(-c2ccc(S(=O)(=O)N(CCO)CCO)cc2)cc1)N(CCO)CCO | 9 | -4.1
COCC(C)NCc1cc(C)c(OC)cc1C (stereo unspecified) | 1 | -0.7
CC(CC(=O)c1ccccc1)CC(=O)c1ccccc1 | 10 | -3.0
CC(C)NC(=O)CCc1nc(-c2ccc(Cl)cc2)no1 | 2 | 0.5
CC(=O)c1cc(F)cc(Cl)c1OC(=O)c1c(-c2c(Cl)cccc2Cl)noc1C | / | -1.4
Cc1cc(OCc2nnc3n2CCCCC3)ccc1Cl | 3 | 0.1
CN(C)C(=O)COC(=O)c1ccccc1NCCO | 10 | /
Cc1cc(=O)oc(C)c1C(=O)OCC(=O)c1ccccc1 | -2 | -0.8
CC1CCCN(C(=O)C(C)OC(=O)c2c3c(nc4ccccc24)CCN(C)C3)C1 (stereo unspecified) | -13 | /
Later entries
SMILES | Sa helicase inh | MgrA-DNA mod
CSc1nc(C)cc(OCC(=O)NCCOc2ccc(C)cc2)n1 | 8 | 1.7
COc1ccc(S(=O)(=O)N2CCN(S(=O)(=O)c3ccccc3)CC2)cc1 | -7 | 0.3
O=C(CSc1c(-c2ccccc2)c2cc(Cl)ccc2[nH]c1=O)NC1CCCC1 | 8 | 0.3
CCOC(=O)c1cc(CO)cc(C(=O)OCC)c1 | / | -0.9
O=C(COC(=O)c1cc2ccccc2[nH]1)c1ccccc1 | -7 | /
CCOc1nc2cccnc2n(Cc2cccc(Cl)c2)c1=O | -22 | /
O=C(N/C=C/c1ccsc1)Sc1ccc(Cl)cc1 | / | -2.8
CN(Cc1ccccc1)C(=O)C1c2ccccc2C(=O)N(C)C1c1cccs1 (stereo unspecified) | 3 | 0.9
CCn1cc(C(=O)NN)c(=O)c2cc(F)c(NC3CCCCC3)cc21 | 28 | /
O=S(=O)(c1cccc(-c2nc3ccccc3s2)c1)N1CCCC1 | -15 | /
Cc1noc(N)c1-c1nc(-c2ccc(Cl)cc2Cl)cs1 | / | 3.7
COC(=O)c1c(F)c(F)c(F)c(F)c1C(=O)OC | 6 | 1.6
CCOc1ccc(CCCC(=O)O)cc1 | / | 0.2
CCOC(=O)C1CCN(CN2C(=O)C(=Nc3ccc(C)c(C)c3)c3ccccc32)CC1 | -14 | /
CCC1CSC(Nc2ccccc2C(F)(F)F)=N1 (stereo unspecified) | 1 | /
OC1(C(F)(F)F)CC(c2ccc3c(c2)Nc2ccccc2S3)=NN1 (stereo unspecified) | -17 | /
COc1ccc(/C=C2\CSc3ccccc3C2=O)cc1 | -22 | /
CN(/N=C(\C#N)C(=O)C1CC1)c1ccc(Cl)cc1 | / | 1.2
COc1ccc(NC(=O)C2CC(=O)NC(=Nc3ccccc3)S2)cc1 (stereo unspecified) | 1 | 0.1
COc1cc2c(cc1OC)C(/C(C#N)=N\O)=NC(C)(C)C2 | 3 | /
CC(=O)Nc1nnc(CC(=O)N/N=C/c2ccc(Cl)cc2)s1 | -18 | /
COc1ccc(CCNc2nc(C)cc(=O)[nH]2)cc1OC | 21 | /
CSC(SC)=C(C#N)C(=O)c1cccc(Cl)c1 | / | 3.5
CCC(=O)Nc1ccc(NCc2ccccc2C)cc1 | 28 | 4.1
COc1ccc(Nc2nc(C(=O)NCc3ccco3)cs2)cc1 | -2 | -2.5

5 consecutive records from above, quoted:
SMILES | Sa helicase inh | MgrA-DNA mod
CC(=O)Nc1nnc(CC(=O)N/N=C/c2ccc(Cl)cc2)s1 | -18 | /
COc1ccc(CCNc2nc(C)cc(=O)[nH]2)cc1OC | 21 | /
CSC(SC)=C(C#N)C(=O)c1cccc(Cl)c1 | / | 3.5
CCC(=O)Nc1ccc(NCc2ccccc2C)cc1 | 28 | 4.1
COc1ccc(Nc2nc(C(=O)NCc3ccco3)cs2)cc1 | -2 | -2.5

(cont.)
SMILES | Sa helicase inh | MgrA-DNA mod
CCn1nc(C)c(CCNC(=O)c2cc3c(=O)n(Cc4ccc(OC)cc4)ccc3nc2C)c1C | 3 | /
CCOC(=O)CN1C(=O)C(O)(CC(=O)c2ccc3c(c2)OCO3)c2ccccc21 (stereo unspecified) | -12 | 1.4
CCN(CC)C(=O)c1cccc(Nc2ccc(-c3ccccc3OC)nn2)c1 | -4 | -1.1
CCn1c(C(O)c2cc(C(C)(C)C)c(O)c(C(C)(C)C)c2)nc2ccccc21 (stereo unspecified) | 17 | 1.8
COc1ccc(C2CCCN2C(=O)c2cccs2)cc1 (stereo unspecified) | 10 | -1.1
O=c1[nH]c2ccc(NC(=S)Nc3ccc(S(=O)(=O)N4CCOCC4)cc3)cc2[nH]1 | -14 | /
CCc1ccc(-n2c(N)c(C(=O)OC)c3nc4ccccc4nc32)cc1 | 11 | -2.8
CC(NC(=O)c1ccc(Br)o1)C1CC2CCC1C2 (stereo unspecified) | -19 | -2.4
N#Cc1c(NC(=O)CSc2ccccc2)sc2c1CCC2 | 23 | /
CCOC(=O)c1c(N)sc2ccccc12 | 4 | /
O=c1[nH]ncc(N2CCc3ccccc3C2)c1Cl | 0 | /
O=S1(=O)CC2C(C1)N(c1ccccc1)C(=S)N2c1ccccc1 (stereo unspecified) | -2 | 1.1
O=C(CC(c1cccs1)S(=O)(=O)c1ccccc1)c1ccc(F)cc1 (stereo unspecified) | 10 | /
N#Cc1ccc(OCC(=O)NCc2ccco2)cc1 | 25 | 5.2
CCCCN1CCCCC1C(=O)Nc1c(C)cccc1C (stereo unspecified) | / | -3.2&-2.3
CCC1=Nc2cc(C(=O)NCC3CCCO3)ccc2Sc2ccc(Br)cc21 (stereo unspecified) | 7 | -0.8
O=C1C2C3C=CC(CC3)C2C(=O)N1c1cccc(C(F)(F)F)c1 (stereo unspecified) | / | -0.3
COc1cc(C(=O)O)cc(I)c1OC1CCCC1 | -7 | 6.1

Assay outcomes (PubChem BioAssay)

These rows are one share of the data; rates above refer to the full screens.
